Source: PubChem (several laboratories)
Autofluor counter – counter-screen for toxin protease inhibitors: compound fluorescence | compound autofluorescence counterscreen, microsphere flow cytometry; active compounds read high | AID 624483 | fluorescence intensity (test concentration not listed) | 360,000 compounds, 3.1% hits;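 active = at least 3 SD above the mean of all compounds, about 16000 in these data; inconclusive = too few beads counted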;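 note: 100 nL of 1 mM stock went into each well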
ugtP null kill – growth inhibition of S. aureus ugtP deletion strain; S. aureus RN4220 ugtP deletion, OD600 growth, 16 h; some inactives read as strong as hits; growth inhibition, % (test concentration not listed); 330,000 compounds, 0.54% hits;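 active = z-score under -3 and OD600 up to 0.15 on both plates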;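 note: plate controls were untreated wells for no effect and antibiotic for full effect; wells of about 80 µL received 100 nL stock; the first replicate is given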
Mtb hypoxia rep – inhibitors of hypoxia-regulated fluorescent reporter in Mycobacterium tuberculosis | M. tuberculosis hypoxia-regulated fluorescent reporter, fluorescence | fluorescence inhibition, % (concentration not given with the values) | 300,000 compounds, 0.1% hits | AID 1159583;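 active = 35 to 45% if threefold the growth effect, above 45% if 1.5-fold the growth effect; inactive = the rest, general growth blockers included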;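 note: wells of about 50 µL received 100 nL stock; 0% = vehicle wells and 100% = reference inhibitor wells; whole bacteria with a GFP reporter of the hypoxia response; strong numbers were not always called active; many hits fall short of the cut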
RN4220 kill – S. aureus RN4220 growth inhibition; 330,000 compounds, 0.33% hits; OD600, 16 h; AID 1259311; inhibition, % (concentration not given with the values);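 active = z-score of -3 or lower and OD600 up to 0.18 on both plates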;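 note: plate controls were untreated cells for no effect and reference antibiotic for full effect; stock transfer was 100 nL into about 80 µL; one replicate is shown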
PrP 5UTR inh – suppresses PrP 5' UTR mRNA reporter expression | cell-based PrP 5' UTR mRNA reporter, plate reader | inhibition, % (no concentration beside the values) | 340,000 compounds, 0.35% hits | AID 488862;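 active = every replicate at 50% or more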;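 note: 0 = median of the neutral control wells; tested in H4 reporter cells; numbers are from one replicate; inactives centre near -14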
BJeLR lethal – kills HRASV12-expressing BJeLR cells | BJeLR (HRASV12) viability, CellTiter-Glo ATP luminescence, 48 h; reference of the scale not given here | inhibition, % (concentration not given with the values) | 300,000 compounds, 0.17% hits;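 active = replicate mean above 50%; inconclusive = above 50% but judged a plate artefact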;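 note: 50 nL library stock added to about 25 µL; numbers are from one replicate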
Mtb hypoxia rep growth – second read-out of Mtb hypoxia rep, no call of its own (marks repeat the call); growth inhibition, %; measured here: M. tuberculosis growth (absorbance);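 0% = vehicle and 100% = reference antibiotic; read after six days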
Starred values were filed as active, the others as inactive; ? = inconclusive; · = no result given; & = joins results of further samples.

SMILES | Autofluor counter | ugtP null kill | Mtb hypoxia rep | Mtb hypoxia rep growth | RN4220 kill | PrP 5UTR inh | BJeLR lethal
CN(C(=O)COC(=O)C1CCN(S(=O)(=O)c2c(Cl)cccc2Cl)CC1)C1CCCCC1 | ? | 1 | -2 | -1 | 2.5 | 5 | 9
COc1ccccc1NC(=O)Cn1c2ccccc2c2nc3n(c(=O)c21)CCS3 | 3471 | 2 | -6 | 8 | 1.2 | -3 | -1
O=C(CSc1n[nH]c(-c2ccco2)n1)N1c2ccccc2Sc2ccccc21 | 22111* | -7 | 9 | 13 | 2.5 | -12 | -1
COc1ccccc1N1CCN(Cc2ccc(OC)c3ccccc23)CC1 | 21409* | 16 | 0 | 1 | -6.4 | -17 | 7
Cc1ccc2[nH]c(O)c(N=O)c2c1 | 4392 | 5 | 2 | 3 | 5.8 | -16 | 2
COc1cc(S(=O)(=O)N2CCN(C(=O)c3ccccc3F)CC2)c(OC)cc1NC(C)=O | 2442 | -5 | 2 | 9 | -13 | -22 | 6
CS(=O)(=O)c1ccc(Cl)c(NC(=O)CSc2nnc(C3CC3)n2C2CC2)c1 | 3917 | 3 | 14 | 0 | 6.2 | -16 | ·
O=S(=O)(c1ccc(Cl)cc1)c1ccccn1 | 6087 | 23 | 9 | -4 | 4.9 | 8 | -5
C=CCOC(=O)C1=C(C)NC(C)=C(C(=O)OCC=C)C1c1ccc(O)cc1 | 10057 | -8 | 4 | 2 | 2.9 | -37 | 3
CCOc1ncccc1C(=O)OCC(=O)c1ccc(Br)s1 | 2834 | 11 | 8 | 4 | 4.0 | -1 | ·
Cc1nc2ccccn2c1/C(O)=C1\C(=O)C(=O)N(CCN2CCOCC2)C1c1cccs1 (stereo not drawn) | 7589 | -3 | 10 | 1 | 3.8 | -24 | 4
CS(=O)(=O)c1ccccc1-c1nnc(NC(=O)c2cccc(N3C(=O)CCC3=O)c2)o1 | ? | 4 | 0 | -5 | 1.2 | -19 | -2
COc1cc(/C=c2\s/c(=C\C(=O)C(C)(C)C)[nH]c2=O)cc(OC)c1OC | 4502 | · | · | · | · | -8 | -4
COCCNC(=O)/C(C#N)=C/c1ccc(OCC(=O)NC2CCCCC2)cc1 | 4215 | 4 | 1 | 4 | 4.4 | -16 | -6
COc1ccc(C(=O)Nc2nnc(-c3ccco3)s2)cc1 | 11659 | -18 | 3 | -2 | 6.1 | 25 | 10
Cc1ccc(NC(=O)C(=O)NCCN2CCN(S(C)(=O)=O)CC2)cc1C | 4565 | 3 | 1 | 11 | 11 | -16 | 4
O=C(CCC(=O)Nc1ccc(Br)cc1)NN=Cc1ccc(O)cc1 | · | 4 | 14 | -6 | 1.5 | · | ·
CCn1c(C(=O)O)c(CC(=O)Nc2cccc(C(F)(F)F)c2)c2ccccc21 | 3830 | 0 | 11 | -3 | 6.1 | -9 | 5
CCOC(=O)c1c(N)sc(C(O)(C(F)(F)F)C(F)(F)F)c1-c1ccc(Cl)cc1 | 5962 | 100* | 0 | -5 | 100* | -15 | -5
COCC(C)N1CCC(Oc2ccc(C(=O)N3CCCC3)cc2)CC1 (stereo not drawn) | 5969 | -2 | 4 | 7 | 2.8 | -8 | 1
O=C(Cn1ncn2c(cc3sccc32)c1=O)NC1CCCC1 | 5969 | -2 | -5 | -6 | -0.1 | -23 | -5
O=C(c1ccc([N+](=O)[O-])cc1)N1CCN(C(=O)c2cccnc2)CC1 | 3822 | 12 | 11 | 13 | -0.8 | -43 | -4
Cc1cccc(Cc2c(C)[nH]c(=O)c(C#N)c2C)c1 | 4434 | 7 | 8 | 9 | 2.4 | -17 | -5
CC(C(=O)N1CCc2ccccc21)N(C)CC(=O)Nc1ccc(F)cc1 (stereo not drawn) | 4001 | -3 | -4 | -5 | -2.9 | -23 | ·
Cc1noc(C)c1S(=O)(=O)N(C)CC(=O)NCc1ccccc1 | 2932 | -3 | · | · | 1.5 | -24 | 2
CSCCC(NC(=O)COc1ccccc1)C(=O)OCCOc1ccc(F)cc1 (stereo not drawn) | ? | 10 | 3 | 6 | 4.1 | -3 | -7
CCN(Cc1nc2ccccc2c(=O)[nH]1)Cc1cc(=O)oc2cc(C)c(C)cc12 | 22679* | -16 | 7 | 8 | 7.6 | -4 | 11
COc1ccc(CN2CCN(CCc3ccccc3)C(CCO)C2)cc1Cn1cncn1 (stereo not drawn) | 2159 | -1 | -10 | -8 | -1.9 | -20 | -4
ON=C1C2C3C(Br)C4C5CC(C1C53)C24 (stereo not drawn) | · | 3 | -2 | 7 | 6.7 | · | ·
Cc1cc(OCCN2CCOCC2)ccc1[N+](=O)[O-] | 2129 | 3 | 8 | 4 | 2.5 | -62 | 17
N/C(COc1ccc(C(=O)O)cc1)=N\O | 2750 | · | · | · | · | -20 | -5
O=C(Oc1ccc(-c2ccccc2)cc1)N1CCCCC1 | 2136 | 11 | · | · | 2.0 | -137 | 0
CCCCOc1ccc(C(=O)N(C)CC(=O)Nc2ccc(C)cc2)cc1 | 4166 | 15 | 6 | 0 | 1.9 | -19 | -1
CCN1CCN(C(c2cccs2)C(C)NC(=O)c2cccc(OC)c2OC)CC1 (stereo not drawn) | 11916 | 3 | 5 | -5 | -0.2 | · | 6
Cc1nc(CS(=O)(=O)c2ccc(Cl)cc2)cc(N2CCOCC2)n1 | 4727 | 4 | · | · | 1.3 | -12 | 6
Cc1nc(SCc2ccc(C(=O)O)cc2)c2c(C)c(C)sc2n1 | 4254 | 8 | 12 | -8 | 22 | -10 | -7
Cc1ccc(C)c(N2CCN(S(=O)(=O)c3ccc4c(c3)CCN4C(=O)CCC(=O)O)CC2)c1 | 5743 | 3 | 6 | 10 | -2.4 | -3 | -6
CCOC(=O)c1c(C)[nH]c(C)c1C(=O)CSc1nnc(-c2ccncc2)n1Cc1ccccc1 | 4076 | -1 | 7 | 9 | 4.1 | -5 | 5
COc1ccccc1CNC(=O)COc1cccc(-n2cnnn2)c1 | · | 3 | 8 | -1 | 1.7 | 2 | 6
O=C(Nc1ccccc1)/C(=C/c1ccc([N+](=O)[O-])cc1)NC(=O)c1ccco1 | 5483 | 3 | -3 | 10 | 1.6 | -7 | 4
O=C(CN1CCOCC1)N/N=C/c1c(O)ccc2ccccc12 | 3163 | · | · | · | · | 6 | 4
CC(C)N1C(=O)CC(Nc2ccc(N3CCOCC3)cc2)C1=O (stereo not drawn) | 5956 | 5 | 8 | -3 | 3.3 | -32 | -2
Cc1nonc1OCCn1c([N+](=O)[O-])cnc1C | 2019 | 1 | -2 | -1 | -1.3 | -3 | -5
COc1ccc(S(=O)(=O)Nc2ccc(NC(C)=O)cc2)cc1[N+](=O)[O-] | 4627 | 4 | -3 | 12 | 1.2 | -18 | ·
Cc1cc(C(=O)N2CCCC(N3CCN(c4cccc(Cl)c4)CC3)C2)no1 (stereo not drawn) | 6015 | 2 | 5 | 5 | 0.4 | -8 | -6

Whole records, quoted from the list.
`O=C(CN1CCOCC1)N/N=C/c1c(O)ccc2ccccc12` is listed with Autofluor counter: 3163; ugtP null kill: ·; Mtb hypoxia rep: ·; Mtb hypoxia rep growth: ·; RN4220 kill: ·; PrP 5UTR inh: 6; BJeLR lethal: 4
`O=C(Nc1ccccc1)/C(=C/c1ccc([N+](=O)[O-])cc1)NC(=O)c1ccco1` is listed with Autofluor counter: 5483; ugtP null kill: 3; Mtb hypoxia rep: -3; Mtb hypoxia rep growth: 10; RN4220 kill: 1.6; PrP 5UTR inh: -7; BJeLR lethal: 4

Back to the main list; the 2 compounds before the break are reprinted first.
SMILES | Autofluor counter | ugtP null kill | Mtb hypoxia rep | Mtb hypoxia rep growth | RN4220 kill | PrP 5UTR inh | BJeLR lethal
COc1ccc(S(=O)(=O)Nc2ccc(NC(C)=O)cc2)cc1[N+](=O)[O-] | 4627 | 4 | -3 | 12 | 1.2 | -18 | ·
Cc1cc(C(=O)N2CCCC(N3CCN(c4cccc(Cl)c4)CC3)C2)no1 (stereo not drawn) | 6015 | 2 | 5 | 5 | 0.4 | -8 | -6
Cc1ccc2nc(SCC(=O)Nc3ccc(C)c([N+](=O)[O-])c3)[nH]c2c1 | 2115 | -17 | 0 | 6 | -4.4 | 3 | -12
COc1ccc(-c2ccc3oc(-c4ccc(OC)cc4)c(-c4cc(OC)c(OC)c(OC)c4)c3c2)cc1 | 3868 | -13 | 3 | 18 | -0.9 | 8 | -3
COc1ccc(/C=C2/C(=O)N=C3SCCN32)cc1 | 3257 | · | · | · | · | -14 | 8
CCn1c(=S)[nH]c2cc(C(=O)O)ccc21 | · | 3 | 14 | -2 | 5.5 | · | 1
O=C(NCCCN1CCCC1=O)c1ccc(NS(=O)(=O)c2ccc(F)cc2)cc1 | 8073 | 5 | 11 | 4 | 3.2 | -23 | ·
CC(C)CNc1nc(Oc2ccc(=O)[nH]n2)nc(N2CCOCC2)n1 | 4836 | 7 | -4 | -4 | 4.3 | -23 | -3
COc1ccccc1NC(=O)c1ccc(S(=O)(=O)N(C)c2ccccc2)cc1 | 2911 | 2 | 22 | 4 | 4.1 | 16 | ·
COC(=O)Cn1cc([N+](=O)[O-])nc1C | 4976 | 4 | 10 | 11 | 7.2 | -13 | -3
COc1cc(O)c(C(CCN2CCCC(C)C2)c2ccc3c(c2)OCO3)c(OC)c1 (stereo not drawn) | 3990 | -1 | 15 | 4 | -0.8 | -17 | -8
Cc1cc(C)c2c(c1)C(=O)/C(=C/c1ccc(C(=O)O)cc1)CC2 | 4827 | -8 | 4 | 7 | 3.0 | -28 | -15
Cc1cc(NC(=O)CSc2nc(C3CC3)nc3sc(C)c(C)c23)no1 | 5069 | 1 | 17 | 7 | 12 | -37 | 10
CC(C)CC(NC(=O)C1CCCCC1)C(=O)N1CCN(c2ccccn2)CC1 (stereo not drawn) | 6837 | -2 | -6 | 0 | -1.0 | -19 | 5
O=C(C1=CC(c2ccc(C(F)(F)F)cc2)CC(OCCCCO)O1)N1CCN(Cc2ccc3c(c2)OCO3)CC1 (stereo not drawn) | · | 1&3 | 7&-4 | 4&10 | 9.8&-0.3 | · | ·
NC(=O)NN=Cc1ccc2cccc(OCc3ccccc3)c2n1 | · | -1 | 6 | 0 | 1.3 | · | ·
CCCC(=O)Nc1ccc(C2C(=O)c3ccccc3C2=O)cc1 | 4076 | 8 | 13 | 11 | -0.7 | 3 | 19
COc1ccccc1-n1c(SCC(=O)NC2CC2)nc2ccccc2c1=O | 6596 | 1 | 2 | -6 | 0.8 | 4 | ·
CCOc1ccc(OCCN2CCCCC2)cc1 | 3160 | 10 | 11 | 14 | 2.0 | -10 | 16
COc1ccccc1NC(=O)c1cn(CCC#N)nc1-c1cccc(Cl)c1 | 3804 | 6 | 7 | 0 | 4.7 | -14 | 5
CCOC(=O)[C@@H]1[C@H]2COc3cc(OC)ccc3[C@@H]2N2C(=O)N(c3cccc(Cl)c3)C(=O)[C@]12C | 2918 | · | · | · | · | -40 | 3
COC(=O)c1ccc(C=NNC(=O)C2CC(=O)N(c3ccc(F)cc3)C2)cc1 (stereo not drawn) | · | 5 | 3 | 0 | 0.8 | · | ·
C(=Cc1ccccc1)CSc1nnc(-c2ccccn2)n1Cc1ccco1 | · | -8 | 1 | 2 | 9.8 | · | ·
CC1Cc2ccccc2N1C(=O)CSc1nc2ccccc2s1 (stereo not drawn) | 2214 | 35 | 2 | 4 | 22 | -16 | 2
CCn1c2ccccc2c2cc(NC(=O)COC(=O)c3ccccc3F)ccc21 | 8687 | 10 | 9 | 4 | 9.0 | -22 | 1
Cc1ccc2c(c1)C(=O)C(=O)N2CC(=O)Nc1ccccc1NC(=O)c1ccccn1 | 4296 | 17 | 4 | 11 | 0.0 | -27 | 1
COC(=O)CSC(C(=O)Nc1ccc(C)c(C)c1)c1ccccc1 (stereo not drawn) | 22778* | 2 | 7 | 17 | 4.3 | -18 | 1
COCCN(CC(=O)Nc1cccc(C)c1)S(=O)(=O)c1ccc(S(=O)(=O)N2CCCC2)cc1 | 5107 | -9 | · | · | -1.6 | -10 | -9
O=C(CSc1nnc(NC(=O)C2CC2)s1)NCc1ccco1 | 9867 | -1 | 5 | 5 | 8.7 | -17 | -3
O=C(NC(C(=O)N/N=C/c1cc([N+](=O)[O-])ccc1O)c1n[nH]c(=O)c2ccccc12)c1ccccc1 (stereo not drawn) | 3734 | · | · | · | · | -11 | 3
N#Cc1c(NC(=O)c2ccc(Cn3cc(Br)cn3)o2)sc2c1CCCCCC2 | 9749 | -40 | 8 | 11 | -7.2 | · | 6
